High-throughput results deposited in PubChem BioAssay by The Scripps Research Institute Molecular Screening Center.
pPAFAH FP inh: pPAFAH enzyme inhibitors, primary screen, biochemical, fluorescence polarization, human; Platelet-activating factor acetylhydrolase (Homo sapiens), Q13093; recombinant pPAFAH, FP-rhodamine probe fluorescence polarization; inhibition, % at 3.39 µM; hit rate 1.5% among 330,000; AID 463082, 2010;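 active = inhibition above the mean inhibition across the screen plus 3 SD, cut at about 25% in these data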;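 note: inhibitors block binding of the rhodamine activity-based probe so polarization drops; 0% = enzyme with DMSO and 100% = wells lacking pPAFAH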
PAD4 inh: human PAD4 inhibitors, primary screen, biochemical, fluorescence polarization, 1536-well format; recombinant PAD4, RCA probe fluorescence polarization; inhibition, % at 6.36 µM; hit rate 0.41% among 330,000;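 active = percent inhibition above a cutoff equal to the mean of all tested compounds plus 3 SD, cut at about 15% in these data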;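 note: 0% = PAD4 with RCA probe and DMSO and 100% = probe without PAD4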
LYPLA2 inh: LYPLA2 inhibitors, primary screen, counter-screen for PME1 inhibitor project, biochemical, fluorescence polarization, FP-Rh probe ABPP. Acyl-protein thioesterase 2 (Homo sapiens), O95372. recombinant LYPLA2. inhibition, % at 5.9 µM. hit rate 0.38% among 320,000;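 active = inhibition above the screen-wide mean plus 3 SD, limit set per campaign, cut at about 26% in these data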;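 note: 0% = LYPLA2 with DMSO and 100% = wells lacking LYPLA2 enzyme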
Target sequence (O95372 whole entry, looked up): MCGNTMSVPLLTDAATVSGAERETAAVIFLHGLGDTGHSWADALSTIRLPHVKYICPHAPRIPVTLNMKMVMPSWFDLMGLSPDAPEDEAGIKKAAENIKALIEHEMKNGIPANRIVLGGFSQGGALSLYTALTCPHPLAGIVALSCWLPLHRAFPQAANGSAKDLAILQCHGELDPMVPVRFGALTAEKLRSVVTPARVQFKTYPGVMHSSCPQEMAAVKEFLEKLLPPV
PREPL inhibitor: PREPL enzyme inhibitors, primary screen, biochemical, fluorescence polarization. Prolyl endopeptidase-like (Homo sapiens), Q4J6C6. recombinant PREPL, fluorescence polarization activity-based probe. inhibition, % at 5.96 µM. hit rate 0.68% among 320,000; in the data active = inhibition above about 43%;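 note: 0% = enzyme with DMSO and 100% = wells lacking enzyme; many of its hits are not listed in these tables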
PME-1 inh: PME-1 inhibitors via competitive probe labeling, primary screen, biochemical, fluorescence polarization, FP-Rh probe, HTS; Protein phosphatase methylesterase 1 (Homo sapiens), Q9Y570; recombinant PME-1; inhibition, % at 5.9 µM; hit rate 0.53% among 320,000;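 active = inhibition above the campaign mean of all compounds plus 3 SD, cut at about 26% in these data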;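 note: competitive labeling of PME-1 active site by serine hydrolase directed probe; 0% = PME-1 with DMSO and 100% = wells lacking PME-1 enzyme; inhibitors block probe labeling so polarization falls and inhibition rises; many of its hits are not listed in these tables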
PAFAH1B3 inh: PAFAH1B3 enzyme inhibitors, primary screen, biochemical, fluorescence polarization, human | Platelet-activating factor acetylhydrolase IB subunit alpha1 (Homo sapiens), Q15102 | recombinant PAFAH1B3, FP-rhodamine probe | inhibition, % at 3.39 µM | hit rate 0.28% among 340,000;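 active = inhibition above the screen-wide average of all tested compounds plus 3 SD, cut at about 25% in these data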;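 note: 0% = enzyme with DMSO only and 100% = wells lacking PAFAH1B3 protein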
Target sequence (Q15102 whole entry, looked up): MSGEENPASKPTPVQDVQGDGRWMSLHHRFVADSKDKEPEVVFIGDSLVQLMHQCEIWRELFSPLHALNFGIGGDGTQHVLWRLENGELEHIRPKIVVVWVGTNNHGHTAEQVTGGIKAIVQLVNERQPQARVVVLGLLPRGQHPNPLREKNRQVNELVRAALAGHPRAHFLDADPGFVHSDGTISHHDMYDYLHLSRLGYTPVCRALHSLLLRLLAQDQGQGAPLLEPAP
LYPLA1 counter: LYPLA1 inhibitors, primary screen, counter-screen for PME1 inhibitor project, biochemical, fluorescence polarization, FP-Rh probe ABPP | recombinant LYPLA1 | hit rate 0.16% among 320,000 | inhibition, % at 5.9 µM | AID 2174, 2009 | Acyl-protein thioesterase 1 (Homo sapiens), O75608;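 active = inhibition above the mean of all tested compounds plus 3 SD, set per campaign, cut at about 14% in these data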;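 note: inhibitors block serine hydrolase probe labeling of LYPLA1 so polarization falls; 0% = enzyme with DMSO and 100% = wells lacking LYPLA1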
Target sequence (O75608 whole entry, looked up): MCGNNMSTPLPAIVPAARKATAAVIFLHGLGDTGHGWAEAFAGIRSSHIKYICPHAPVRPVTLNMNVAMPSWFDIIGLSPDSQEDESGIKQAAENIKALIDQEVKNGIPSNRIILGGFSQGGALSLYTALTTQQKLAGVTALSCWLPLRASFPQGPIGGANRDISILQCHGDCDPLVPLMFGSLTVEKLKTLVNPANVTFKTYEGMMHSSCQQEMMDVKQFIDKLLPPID
GSTO1 inh: inhibitors of recombinant GSTO1, primary screen, counter-screen for RBBP9 inhibitor project, biochemical, fluorescence polarization; Glutathione S-transferase omega-1 (Homo sapiens), P78417; activity-based probe fluorescence polarization; inhibition, % at 5.96 µM; hit rate 1.1% among 300,000; AID 1974, 2009;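 active = inhibition above the campaign mean inhibition plus 3 SD, cut at about 35% in these data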;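 note: 0% = GSTO1-1 with DMSO and 100% = wells lacking GSTO1-1 enzyme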
Target sequence (P78417 whole entry, looked up): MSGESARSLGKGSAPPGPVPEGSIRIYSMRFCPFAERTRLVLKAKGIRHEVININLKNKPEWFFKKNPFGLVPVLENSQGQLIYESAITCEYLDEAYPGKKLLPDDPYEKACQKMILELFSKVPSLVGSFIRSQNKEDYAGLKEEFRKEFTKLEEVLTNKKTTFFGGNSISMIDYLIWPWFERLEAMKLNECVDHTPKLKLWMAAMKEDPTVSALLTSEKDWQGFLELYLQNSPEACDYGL
The depositor's hits bear a star. A portion of the library; rates above refer to the full screens.

`C=CCSc1ncccc1C(=O)NCCc1ccc(Cl)cc1` gave pPAFAH FP inh 5, PAD4 inh -2, LYPLA2 inh -5, PREPL inhibitor 18, PME-1 inh -2, PAFAH1B3 inh 4, LYPLA1 counter -1 and GSTO1 inh -10.
`CCOc1ncccc1C(=O)NCCc1ccc(Cl)cc1` gave pPAFAH FP inh 7, PAD4 inh -1, LYPLA2 inh 6, PREPL inhibitor 7, PME-1 inh 4, PAFAH1B3 inh 10, LYPLA1 counter 3 and GSTO1 inh 12.
`CC(C)c1nc2ccc(NC(=O)C34CC5CC(CC(C5)C3)C4)cc2[nH]1` gave pPAFAH FP inh 6, PAD4 inh 4, LYPLA2 inh 7, PREPL inhibitor 4, PME-1 inh -5, PAFAH1B3 inh 3, LYPLA1 counter 2 and GSTO1 inh 0.
For CN(CC(=O)Nc1ccccc1Cl)C(=O)COC(=O)CSc1ccc(Cl)cc1 the results were pPAFAH FP inh 21, PAD4 inh -1, LYPLA2 inh 1, PREPL inhibitor 5, PME-1 inh -3, PAFAH1B3 inh -1 and LYPLA1 counter 1.
Screening O=C(CCc1ccccc1)NCC1(c2ccccc2)CCCC1 returned pPAFAH FP inh 8, PAD4 inh -2, LYPLA2 inh -5, PREPL inhibitor 10, PME-1 inh 1, PAFAH1B3 inh 2, LYPLA1 counter 3 and GSTO1 inh -3.
For CC1(C)NC(=O)N(CCSc2ccc(Cl)cc2)C1=O the results were pPAFAH FP inh 7, PAD4 inh -3, LYPLA2 inh 1, PREPL inhibitor -2, PME-1 inh -8, PAFAH1B3 inh 4, LYPLA1 counter -3 and GSTO1 inh -4.
Screening CCCN(CCC)C(C)C(=O)NCC1(c2ccccc2)CCCC1 (configuration not stated) returned pPAFAH FP inh 4, PAD4 inh -6, LYPLA2 inh 6, PREPL inhibitor 6, PME-1 inh -6, PAFAH1B3 inh -4, LYPLA1 counter 0 and GSTO1 inh 5.
For CC1CCCC(NC(=O)COC(=O)CCc2ccccc2)C1C (configuration not stated) the results were pPAFAH FP inh 11, PAD4 inh 4, LYPLA2 inh -2, PREPL inhibitor -2, PME-1 inh 2, PAFAH1B3 inh 7, LYPLA1 counter -4 and GSTO1 inh 4.
Screening O=C(NCC1(c2ccccc2)CCCC1)C(=O)N1CCOCC1 returned pPAFAH FP inh 2, PAD4 inh 1, LYPLA2 inh -5, PREPL inhibitor -2, PME-1 inh 1, PAFAH1B3 inh 4, LYPLA1 counter -5 and GSTO1 inh 6.
For CCCCCCOC(=O)C1=C(C)NC(=O)NC1c1ccc(O)cc1 (configuration not stated) the results were pPAFAH FP inh 4, PAD4 inh -5, LYPLA2 inh -4, PREPL inhibitor -3, PME-1 inh 1, PAFAH1B3 inh 8, LYPLA1 counter -4 and GSTO1 inh -10.
Screening NC(=O)C(c1ccc(Sc2ccccc2)nn1)c1ccc(Cl)cc1Cl (configuration not stated) returned pPAFAH FP inh 1, PAD4 inh -3, LYPLA2 inh -1, PREPL inhibitor 7, PME-1 inh -1, PAFAH1B3 inh 2, LYPLA1 counter 2 and GSTO1 inh -2.
Screening Cn1c(=O)c2c(nc(C3CC4C5CCC(C5)C4C3)n2C)n(C)c1=O (configuration not stated) returned PAFAH1B3 inh 5.
Screening Cc1ccc(-c2nc(CS(=O)CC(=O)N3CCN(c4ccccc4)CC3)c(C)o2)cc1 (configuration not stated) returned pPAFAH FP inh 0, PAD4 inh 2, LYPLA2 inh -3, PREPL inhibitor -20, PME-1 inh 1, PAFAH1B3 inh 6, LYPLA1 counter 0 and GSTO1 inh 1.
For Clc1ccc(SCCCCN2CCOCC2)cc1 the results were pPAFAH FP inh 2, PAD4 inh -5, LYPLA2 inh -2, PREPL inhibitor 6, PME-1 inh -1, PAFAH1B3 inh 4, LYPLA1 counter -2 and GSTO1 inh 4.
COc1ccc(C(=O)NCc2nnc(SCC(=O)Nc3nc4ccccc4s3)o2)cc1 was read as pPAFAH FP inh 7, PAD4 inh 5, LYPLA2 inh 6, PREPL inhibitor 0, PME-1 inh 4, PAFAH1B3 inh 1, LYPLA1 counter 3 and GSTO1 inh 5.
`CSc1n[nH]c2nc3c(c(=O)n12)C1(CCCC1)Cc1ccccc1-3` gave pPAFAH FP inh 4, PAD4 inh -2, LYPLA2 inh -6, PREPL inhibitor 12, PME-1 inh -2, PAFAH1B3 inh 4, LYPLA1 counter 2 and GSTO1 inh -17.
Cn1c(N)c(C(=O)COC(=O)CSc2ccccc2)c(=O)n(C)c1=O was read as pPAFAH FP inh -4, PAD4 inh -4, LYPLA2 inh -7, PREPL inhibitor 6, PME-1 inh -3, PAFAH1B3 inh 2, LYPLA1 counter 1 and GSTO1 inh -5.
O=C(NCCc1ccc(F)cc1)Nc1ccc([N+](=O)[O-])cc1 was read as PAFAH1B3 inh 8.
`Cc1onc(-c2ccccc2)c1C(=O)N1CCN(S(=O)(=O)c2ccc(Cl)cc2)CC1` gave pPAFAH FP inh 3, PAD4 inh 5, LYPLA2 inh -218, PREPL inhibitor 20, PME-1 inh -2, PAFAH1B3 inh 3, LYPLA1 counter 0 and GSTO1 inh -9.
`O=C(c1c[nH]c2ccc(S(=O)(=O)N3CCC4(CC3)OCCO4)cc2c1=O)N1CCOCC1` gave PAFAH1B3 inh 0.
Screening Cc1nc(Cl)sc1C(=O)NC(C)c1ccc(Cl)cc1 (configuration not stated) returned pPAFAH FP inh -10, PAD4 inh -2, LYPLA2 inh 2, PREPL inhibitor -9, PME-1 inh -4, PAFAH1B3 inh 8, LYPLA1 counter 0 and GSTO1 inh 13.
For COCCCn1c(C(=O)NC2CCCCC2C)cc2c(=O)n3cccc(C)c3nc21 (configuration not stated) the results were pPAFAH FP inh 6, PAD4 inh -1, LYPLA2 inh 2, PREPL inhibitor 10, PME-1 inh 0, PAFAH1B3 inh 6, LYPLA1 counter 0 and GSTO1 inh -5.
CCc1cccc(CC)c1NC(=O)COC(=O)C1(c2ccc(Cl)cc2)CCCC1 was read as pPAFAH FP inh -2, PAD4 inh 1, LYPLA2 inh 3, PREPL inhibitor 5, PME-1 inh 6, PAFAH1B3 inh 5, LYPLA1 counter 0 and GSTO1 inh -2.
Cc1ccc(/C(CSc2nccn2-c2ncc(C(F)(F)F)cc2Cl)=N\O)cc1 was read as pPAFAH FP inh 3, PAD4 inh -1, LYPLA2 inh 1, PREPL inhibitor 21, PME-1 inh -2, PAFAH1B3 inh 3, LYPLA1 counter 0 and GSTO1 inh -3.
For O=C(NNC(=S)Nc1ccccc1)C1CCCCC1 the results were pPAFAH FP inh 1, PAD4 inh 4, LYPLA2 inh 2, PREPL inhibitor 8, PME-1 inh 0, PAFAH1B3 inh 2, LYPLA1 counter 0 and GSTO1 inh 9.
`O=c1c2c(nc3nc(NCc4ccc(Cl)cc4)[nH]n13)CCC2` gave pPAFAH FP inh 6, PAD4 inh 1, LYPLA2 inh -1, PREPL inhibitor 1, PME-1 inh -4, PAFAH1B3 inh 2, LYPLA1 counter -1 and GSTO1 inh 2.
`O=C1NC(=O)/C(=C\c2ccc(OCc3ccccc3)cc2)S1` gave pPAFAH FP inh 8, PAD4 inh 0, LYPLA2 inh 13, PREPL inhibitor 15, PME-1 inh -8, PAFAH1B3 inh 5, LYPLA1 counter -1 and GSTO1 inh 4.
Screening COc1cc2c(cc1OC)CN(CCC(C)c1ccc(Cl)cc1)CC2 (configuration not stated) returned pPAFAH FP inh -1, PAD4 inh -1, LYPLA2 inh -3, PREPL inhibitor -17, PME-1 inh 2, PAFAH1B3 inh 5, LYPLA1 counter -3 and GSTO1 inh -1.
`Cc1ccc(S(=O)(=O)CCSc2cccc(C(=O)O)c2)cc1` gave pPAFAH FP inh 1, PAD4 inh 2, LYPLA2 inh -4, PREPL inhibitor -11, PME-1 inh -3, PAFAH1B3 inh 4, LYPLA1 counter -5 and GSTO1 inh 4.
Screening Cc1ccc([C@@H]2CC=C(C(=O)O)[C@H](c3ccccc3F)N2S(=O)(=O)c2ccccc2C)cc1 returned pPAFAH FP inh -1, PAD4 inh 1, PREPL inhibitor 1 and PAFAH1B3 inh 2.
For O=C(NCCc1c[nH]c2ccccc12)C(=O)NCC1OCCCN1S(=O)(=O)c1ccccc1 (configuration not stated) the results were pPAFAH FP inh 8, PAD4 inh 1, LYPLA2 inh 8, PREPL inhibitor 19, PME-1 inh -4, PAFAH1B3 inh 4, LYPLA1 counter 0 and GSTO1 inh 0.
For Cc1cc(Oc2ccc(-c3ccccc3)cc2)n2ncnc2n1 the results were pPAFAH FP inh 10, PAD4 inh 3, LYPLA2 inh 1, PREPL inhibitor 19, PME-1 inh 5, PAFAH1B3 inh 3, LYPLA1 counter -6 and GSTO1 inh 4.
`Cc1cc(C)c(S(=O)(=O)N2CCCOC2CNC(=O)C(=O)NCCc2c[nH]c3ccccc23)c(C)c1` (configuration not stated) gave pPAFAH FP inh 2, PAD4 inh -2, LYPLA2 inh -1, PREPL inhibitor 20, PME-1 inh 3, PAFAH1B3 inh 7, LYPLA1 counter -2 and GSTO1 inh 2.
Cc1ccc(SCCSc2nc(C)cc(=O)[nH]2)cc1 was read as pPAFAH FP inh 7, PAD4 inh 1, LYPLA2 inh 0, PREPL inhibitor -8, PME-1 inh 3, PAFAH1B3 inh 2, LYPLA1 counter 1 and GSTO1 inh 1.
`N#Cc1nc(COc2ccc(Br)cc2)oc1N1CCCC1` gave pPAFAH FP inh 4, PAD4 inh -5, LYPLA2 inh 3, PREPL inhibitor 21, PME-1 inh 1, PAFAH1B3 inh -5, LYPLA1 counter 2 and GSTO1 inh 9.
For Cc1cc(OCC(F)(F)C(F)(F)C(F)(F)C(F)(F)C(F)(F)C(F)F)nc(N)n1 the results were pPAFAH FP inh 9, PAD4 inh 0, LYPLA2 inh 4, PREPL inhibitor -6, PME-1 inh 0, PAFAH1B3 inh 17, LYPLA1 counter 3 and GSTO1 inh -2.
Cc1ccc(-c2csc3ncnc(NS(=O)(=O)c4ccc(Cl)cc4)c23)cc1 was read as pPAFAH FP inh 9, PAD4 inh 2, LYPLA2 inh -3, PREPL inhibitor 3, PME-1 inh 8, PAFAH1B3 inh 6, LYPLA1 counter -5 and GSTO1 inh -11.
Clc1ccc(SCc2cn3ccsc3n2)cc1 was read as pPAFAH FP inh 4, PAD4 inh 3, LYPLA2 inh 4, PREPL inhibitor 11, PME-1 inh 2, PAFAH1B3 inh 4, LYPLA1 counter -2 and GSTO1 inh 0.
`Cc1c(C(=O)O)oc2ccc(S(=O)(=O)N3CCC(C)CC3)cc12` gave pPAFAH FP inh 1, PAD4 inh -4, LYPLA2 inh 2, PREPL inhibitor -10, PME-1 inh -2, PAFAH1B3 inh -6, LYPLA1 counter 2 and GSTO1 inh 1.
O=C(NNS(=O)(=O)c1ccccc1)C1CCN(S(=O)(=O)c2ccc(Cl)cc2)CC1 was read as pPAFAH FP inh 3, PAD4 inh -5, LYPLA2 inh 2, PREPL inhibitor 6, PME-1 inh 4, PAFAH1B3 inh 9, LYPLA1 counter -1 and GSTO1 inh 3.
